VDR inhibitor – vitamin D3 receptor (human) inhibition | P11473 | VDR-SRC2-3 peptide fluorescence polarization, 2 h | Potency, µM, inactives show max response, negative = inhibition, most hits filed as inhibitors | 400,000 tested, 0.93% active; active = well fitted inhibition curve with a large enough effect; inconclusive = small, poorly fitted or top-dose-only effect, or another doubt; inactive = no such curve, though single readings can be large or run the other way; note: series mostly up to about 120 µM
Target sequence (P11473 whole entry, looked up): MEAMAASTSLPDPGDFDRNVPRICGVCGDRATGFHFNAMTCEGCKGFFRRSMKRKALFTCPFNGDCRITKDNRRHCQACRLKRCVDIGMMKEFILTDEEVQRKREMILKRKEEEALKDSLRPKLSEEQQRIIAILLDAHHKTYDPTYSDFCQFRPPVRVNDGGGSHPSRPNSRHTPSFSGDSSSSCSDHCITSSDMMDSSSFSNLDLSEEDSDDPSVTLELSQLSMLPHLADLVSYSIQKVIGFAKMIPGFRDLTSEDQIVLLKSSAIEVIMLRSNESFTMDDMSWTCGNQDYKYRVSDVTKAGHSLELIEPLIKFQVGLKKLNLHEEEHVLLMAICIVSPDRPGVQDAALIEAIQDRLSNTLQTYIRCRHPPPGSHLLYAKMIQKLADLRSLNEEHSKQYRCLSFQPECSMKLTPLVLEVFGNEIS
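Fluorescence polarization assay of small-molecule disruption of VDR binding to coregulator peptide SRC2-3. Compounds and controls pin-transferred, then read after 2 h incubation at ambient room temperature.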
Numbers without * were called inactive; ? = inconclusive; & = joins results of further samples. % is set by controls: 0 for no effect and ±100 for the full control effect; potency is the fitted concentration of half-maximal effect.

Start of the data: the first 5 compounds (preview)
SMILES	VDR inhibitor
Cc1[nH]c(C)c2c(=O)[nH]ncc12	-0.3%
COc1ccc(CNc2ncnc3c2c(-c2ccccc2)cn3-c2ccc(C)c(Cl)c2)cc1	-4.1%
Cc1cccc(N2CC(C(=O)Nc3ccc(S(=O)(=O)Nc4nccs4)cc3)CC2=O)c1C (stereo not drawn)	-24.5%
O=c1[nH]nc(Cc2ccccc2)c2ccccc12	4.0%
N#C/C(=C\c1ccc(OCc2ccccc2)cc1)C(=O)Nc1ccc(C(=O)O)cc1	5.0%

All compounds of this part (from the top)
SMILES	VDR inhibitor
Cc1[nH]c(C)c2c(=O)[nH]ncc12	-0.3%
COc1ccc(CNc2ncnc3c2c(-c2ccccc2)cn3-c2ccc(C)c(Cl)c2)cc1	-4.1%
Cc1cccc(N2CC(C(=O)Nc3ccc(S(=O)(=O)Nc4nccs4)cc3)CC2=O)c1C (stereo not drawn)	-24.5%
O=c1[nH]nc(Cc2ccccc2)c2ccccc12	4.0%
N#C/C(=C\c1ccc(OCc2ccccc2)cc1)C(=O)Nc1ccc(C(=O)O)cc1	5.0%
Cc1cc(C)cc(C(=O)NC(=S)Nc2ccc(Cc3ccncc3)cc2)c1	-15.8%
CCn1nc(C(=O)NNC(=O)COc2ccccc2C)c2ccccc2c1=O	-2.0%
CC(C)n1cc(/C=C(\C#N)S(=O)(=O)c2ccccc2)c2ccccc21	-10.9%
CCOC(=O)c1[nH]c(C)c(C(=O)NCc2ccccn2)c1C	0.6%
CCCNc1c(NS(=O)(=O)c2ccc(NC(=O)CC)cc2)c(=O)oc2ccccc12	7.1%
CC/C(=C\C1CCCCC1)C(NP(=O)(c1ccccc1)c1ccccc1)c1ccccc1 (stereo not drawn)	-4.8%
CN(C)S(=O)(=O)c1ccc(/C(O)=C2/C(=O)C(=O)N(Cc3cccnc3)C2c2ccncc2)cc1 (stereo not drawn)	22.2%
CCOc1ccc(N(CC(=O)NC2CCCCC2)C(=O)CNC(=O)c2ccco2)cc1	-9.1%
CCC1Oc2ccc(C)cc2N(CC(=O)NCCN2C(C)CCCC2C)C1=O (stereo not drawn)	-14.6%
CCOc1ccc(CCNC(=O)CSc2cc(=O)n(C)c3ccccc23)cc1OCC	4.7%&-1.8%
COc1cc(OC)c(C(=O)C=Cc2ccc(OC)c(OC)c2)c(OC)c1	27.0%
Cc1nc(-c2ccccc2)sc1CCNS(=O)(=O)c1ccccc1	16.8%
CCc1ccc(CN2CCC(Oc3ccc(C(=O)N4CCCC4)cc3)CC2)cc1	-13.5%
COC(=O)c1sccc1N/N=C(\C)c1ccc(F)c(Cl)c1	0.9%
Nc1nnc(CC(=O)N2CCCCC2)s1	3.4%
O=C(NCc1ccc2c(c1)OCO2)c1ccc(Cl)nc1	-20.6%
CCn1nc(NC(=O)c2ccccc2)c2cc3cccc(C)c3nc21	-12.7%
CCOC(=O)N1CCN(c2nc(-c3ccccc3)c3cc(C)ccc3n2)CC1	-8.9%
CCOC(=O)c1cc(-c2ccccc2)nn1CC1CC(c2cccnc2)=NO1 (stereo not drawn)	-5.8%
CCCn1c(NC(=O)CN2C(=O)NC3(CCCCC3)C2=O)nc2ccccc21	?
Cn1cc(S(=O)(=O)N2CCCCCC2)cc1C(=O)NCc1ccccc1Cl	4.2%
CC(C)(C)C(=O)N1CCN(c2ccc(NC(=O)c3ccc([N+](=O)[O-])o3)cc2)CC1	-12.4%
Cc1ccc(S(=O)(=O)N2CCN(C(C)CC(=O)O)CC2)cc1 (stereo not drawn)	6.9%
CCCC(=O)Nc1nnc(CCN2CCCCC2)s1	-6.4%
O=C(CSc1nnc(C2CC2)n1C1CC1)Nc1cccc(Br)c1	-11.8%
CCC(NC(=S)NCc1ccc(F)cc1)c1ccc(C)cc1 (stereo not drawn)	1.6%
O=C(Nc1nc2ccc(S(=O)(=O)N3CCCC3)cc2s1)c1ccccn1	-21.4%
COc1cc(/C=C/c2sc3ccccc3[n+]2CCCS(=O)(=O)[O-])ccc1O	-15.7%
O=C(Nc1cccc2c1CCCC2)c1cc([N+](=O)[O-])cc([N+](=O)[O-])c1	-9.5%
CCOC(=O)c1oc2cc(O)ccc2c(=O)c1-c1ccc(OC)cc1	11.5%
Cc1ccc(C)c(NC(=O)c2nnn(Cc3ccccc3)c2N)c1	-2.2%
O=C(N/N=C/c1ccc(Cl)cc1)C(=O)N1CCCCCC1	-7.2%
CCOC(=O)c1[nH]c2ccc(OC)cc2c1NC(=O)CN1CCC2(CC1)OCCO2	-11.4%
CCOc1ccc2nc(SCC(=O)NC3CC3)sc2c1	-11.4%
N#Cc1ccc(C(=O)CSc2n[nH]c(=O)n2-c2cccnc2)cc1	-10.3%
O=C1NC(=O)C(Cc2c[nH]c3ccccc23)N1 (stereo not drawn)	-5.2%
Cc1ccc(NC(=O)[C@H](Cc2ccccc2)N2Cc3ccccc3C2=O)cc1F	-5.0%
O=c1c(C(c2ccc(O)cc2)c2c(O)nc3n(c2=O)CCS3)c(O)nc2n1CCS2	?
COc1cccc(NC(=O)COc2ccccc2C(N)=O)c1	-12.9%
Cc1cccc2sc(N3CCN(C(=O)C4COc5ccccc5O4)CC3)nc12 (stereo not drawn)	6.0%
COc1ccc(C(=O)Oc2ccc(/C=N/Nc3ccc(Cl)c(C(=O)O)c3)cc2OC)cc1	-6.2%
COc1ccc2c(C)c(CCC(=O)NC3CC3)c(=O)oc2c1C	17.1%
O=C(COC(=O)/C=C/c1ccc(C(F)(F)F)cc1)NC1CCCC1	22.0%
Cc1c(CNCCc2ccc(S(N)(=O)=O)cc2)c(C(=O)O)c(C)n1Cc1ccc(Cl)cc1	16.3%
O=C(CSc1nc2ccccc2o1)N/N=C/c1ccccc1C(=O)O	-26.3%

Next part
SMILES	VDR inhibitor
c1ccc(CSc2nnc(-c3ccccc3)c(-c3ccccc3)n2)cc1	4.8%
CC(=O)C1=NOC(CNC(=O)c2c(-c3ccccc3Cl)noc2C)C1 (stereo not drawn)	0.9%
CCN1CCN(C(=O)C(C)Sc2nnc3nc(C)cc(C)n23)CC1 (stereo not drawn)	?
c1ccc2c(CN3CCOCC3)c3ccccc3c(CN3CCOCC3)c2c1	2.7%
Cc1ccc(C(=O)Cn2c(N3CCOCC3)nc3c2c(=O)n(C)c(=O)n3C)cc1	3.1%
CCOC(=O)C1=C(C)C2C3C(=O)N(c4ccccc4C)C(=O)C3C1(C)C1C(=O)N(c3ccccc3C)C(=O)C21 (stereo not drawn)	13.3%
Cc1cc(-c2nc3ccccc3o2)c2ccccc2n1	0.9%
Cn1c(Cn2c(=O)sc3ccccc32)nnc1SCC(=O)Nc1ccc2c(c1)OCO2	-8.3%
CCN(CC)S(=O)(=O)c1cccc(C(=O)Nc2ccc(C#N)cc2)c1	-2.1%
COc1ccc(OC(=O)c2cc3cc(Cl)ccc3oc2=O)cc1	-26.4%

Given bar-delimited: part of the list above.
structure | VDR inhibitor
c1ccc2c(CN3CCOCC3)c3ccccc3c(CN3CCOCC3)c2c1 | 2.7%
Cc1ccc(C(=O)Cn2c(N3CCOCC3)nc3c2c(=O)n(C)c(=O)n3C)cc1 | 3.1%
CCOC(=O)C1=C(C)C2C3C(=O)N(c4ccccc4C)C(=O)C3C1(C)C1C(=O)N(c3ccccc3C)C(=O)C21 (stereo not drawn) | 13.3%

(cont.)
SMILES	VDR inhibitor
COc1cccc(C2c3c(oc4ccccc4c3=O)C(=O)N2CCCN(C)C)c1OC (stereo not drawn)	-3.0%
O=C(CCNS(=O)(=O)c1ccc2c(c1)CCC(=O)N2)NCc1cccnc1	-19.1%
Fc1ccc(-c2cc3nc(-c4ccccc4)cc(N4CCN(CCN5CCOCC5)CC4)n3n2)cc1	5.5%
CN(CC(=O)Nc1ccc(F)c(F)c1F)C(=O)C1CCCO1 (stereo not drawn)	20.3%
CCN1CCN(C(=O)C(=O)c2c(C)[nH]c3ccccc23)CC1	9.8%
CCN1CCN(C(=O)c2cc3cc([N+](=O)[O-])ccc3oc2=O)CC1	-4.7%
Cc1nc(N2CCC(C)CC2)c2c(C)c(C(=O)Nc3ccc4c(c3)OCCO4)sc2n1	-16.7%
COc1ccc(CC(C(=O)Nc2cccc(F)c2)c2nn[nH]n2)c(OC)c1 (stereo not drawn)	-5.3%
Nn1c(-c2ccccc2Cl)nnc1-c1ccccc1Cl	-2.3%
COc1cc(/C=N/Nc2ccc(Cl)c(C(=O)O)c2)ccc1OC(=O)c1ccc(F)cc1	-1.8%

Reprinted at random: 2 records from the list
SMILES	VDR inhibitor
Fc1ccc(-c2cc3nc(-c4ccccc4)cc(N4CCN(CCN5CCOCC5)CC4)n3n2)cc1	5.5%
CCN1CCN(C(=O)c2cc3cc([N+](=O)[O-])ccc3oc2=O)CC1	-4.7%

(continued)
SMILES	VDR inhibitor
COc1ccccc1CNC(=S)Nc1ccc(S(N)(=O)=O)cc1	3.6%
CS(=O)(=O)N1CCC(Oc2ccccc2C(=O)NC2CCCCCC2)CC1	7.9%
O=C(CCc1ccccc1)Nc1cc(NC(=O)CCc2ccccc2)cc(C(=O)O)c1	13.7%
Cc1ccc(Cl)cc1N1CCN(C(=O)c2sc3nc4n(c(=O)c3c2C)CCC4)CC1	17.6%
O=C1CC(SC(=NCc2ccc3c(c2)OCO3)Nc2ccccc2)C(=O)N1 (stereo not drawn)	16.6%
CCOC(=O)N1CCC(NC(=O)c2c(C)nn(-c3ccc(C)cc3)c2-n2cccc2)CC1	1.6%
CCCn1c(N)c(C(=O)CSc2nnnn2-c2ccc(O)cc2)c(=O)n(C)c1=O	9.2%
C=C(C)CSc1nnc(-c2ccc(C)cc2)n1N	12.0%
Cc1cc(C)cc(NC(=O)C2CCN(C(=O)c3cccs3)CC2)c1	8.7%
O=c1c2ccccc2c(C=NCc2ccccn2)c(O)n1-c1ccccc1Cl	-3.2%
O=C1CC(Cc2ccc(Cl)cc2)C(=O)N1c1ccncc1 (stereo not drawn)	-3.8%
COc1cccc(CN2CCNC(=O)C2CC(=O)N(C)CCC2CCOCC2)c1OC (stereo not drawn)	-9.3%
CCC(C)NC(=O)CSc1nc(-c2cccs2)cc(C(F)(F)F)n1 (stereo not drawn)	-2.1%
Cc1ccc(S(=O)(=O)c2cc3cc(Br)ccc3oc2=O)cc1	-21.2%
CC(C)NC(=O)Nc1ccc2c(c1)C(=O)N([C@H](C)CO)C[C@H](C)[C@@H](CN(C)S(=O)(=O)c1ccc(F)cc1)O2	0.5%
Cc1cccc(NC(=O)CCc2c(C)nc3nc(CNC(=O)c4cccc(F)c4)nn3c2C)c1	5.0%
CCC(c1nc2ccccc2c(=O)n1CCCn1ccnc1)N1C(=O)c2ccccc2C1=O (stereo not drawn)	-8.7%
O=C(NCC1CCCN1S(=O)(=O)c1cccs1)c1ccccc1F (stereo not drawn)	0.8%
CCc1ccc(NC(=O)Nc2cccc(OC)c2)cc1	7.3%
Cn1c(=O)c2c(n3c4ccccc4nc13)NC(=O)CC2c1cccc(F)c1 (stereo not drawn)	16.4%
O=C(NCc1ccccc1)c1ccc(=O)[nH]n1	-5.5%
CC(=O)c1c(C)nc2ccc(Cl)cn12	6.4%
CC[C@@H]1C=C(C(=O)O)[C@H](c2ccc3c(c2)OCO3)N1S(=O)(=O)c1ccc(C)cc1	-16.1%
Cc1ccnc(NC(=O)COC(=O)C2COc3ccccc3O2)n1 (stereo not drawn)	-0.1%
Cc1c(C(=O)NCc2ccccc2)oc2c1-c1[nH]ncc1CC2	12.2%
Cc1c(CN2CC[C@@H](N3CCN(c4ccccn4)CC3)[C@H](O)C2)[nH]c2ccc(F)cc12	-1.3%
CCCC(=O)N1CC2(C)CN(C(=O)CCC)CC(CCC)(C1)C2=O	10.2%
N#Cc1ccccc1Cn1c(=O)n(-c2ccccc2)c(=O)c2c3c(sc21)CCC3	-9.0%
Cc1cccc(-n2c(N)c(C(=O)N3CCN(C)CC3)sc2=S)c1	?
CN(CC(=O)Nc1ccc(Cl)cc1)C(=O)CCc1ccccc1	13.9%
CC(C)CNC(=O)N1CCN(S(=O)(=O)c2ccc3c(ccn3C)c2)CC1	14.4%
O=C(Nc1nc(-c2ccccc2)cs1)c1cccc([N+](=O)[O-])c1	-0.1%
O=C(NCC1CCCO1)/C(=C\c1ccc(Cl)cc1)NC(=O)c1ccccc1 (stereo not drawn)	18.6%
Cc1ccc(Cn2c(SCCN3CCCCC3)nc3c2c(=O)[nH]c(=O)n3C)cc1	89.1µM*
COc1cc(/C=N/NC(N)=S)ccc1OCc1ccc(C)cc1	5.6%
O=C(c1ccc(OC2CCN(C/C=C/c3ccccc3)CC2)cc1)N1CCCCC1	1.1%
CC1=NN(c2ccccc2)C(=O)C1C(=O)C(=O)Nc1ccc(F)cc1 (stereo not drawn)	-19.8%
O=C(c1ccccc1)N1N=C(c2ccccc2O)CC1c1ccc(Br)cc1 (stereo not drawn)	9.4%
O=C(c1cc2cc(F)ccc2[nH]1)N1CCN(c2cccc(Cl)c2)CC1	13.2%
CCC(=O)N1CCc2cc(S(=O)(=O)CCC(=O)NCCc3ccc(S(N)(=O)=O)cc3)ccc21	-16.9%
CCOc1ccc(S(=O)(=O)NCCC(=O)N(C)CC(=O)Nc2ccc(OC)cc2)cc1	-2.9%
FC(F)Oc1ccccc1NC(=S)NCCc1ccccc1	-7.6%
COc1ccc(Cl)cc1-c1nc(SCC(=O)N(C)CCC#N)n[nH]1	-10.2%
Cc1cccc(Nc2nn3c(=O)c4ccccc4nc3s2)c1	21.3%
Cn1c2ccccc2c(=O)c2ccc(-c3ccc4c(c3)OCO4)cc21	-9.9%
Cc1ccc(CNC(=O)CN(c2ccc(C(C)C)cc2)S(=O)(=O)c2c(C)noc2C)cc1	-16.1%
Nc1nc2ccccc2cc1S(=O)(=O)c1ccccc1	-6.8%
COc1cc(OC)cc(C(=O)Nc2cc(-c3cn4cccnc4n3)ccc2C)c1	8.6%

High-throughput results: PubChem, National Center for Advancing Translational Sciences (NCATS)

A portion of the library; the hit share may differ from the screen's.
